High-throughput results as filed in PubChem BioAssay.
gsp agonist: gsp mutant agonism. gsp mutant cells, cAMP HTRF, 30 min; control for the full effect not named in the record. AID 624287. hit rate 0.13% among 340,000. Potency, µM (titrated, usually from 76.9 µM), for the others: top-dose activation (cAMP increase), usual class: activators; active = well fitted activation curve with a large enough effect; inconclusive = small, poorly fitted or top-dose-only effect, or another doubt; inactive = no such curve, though single readings can be large or run the other way; cell line not stated here;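 further: phosphodiesterase inhibitor Ro 20-1724 added with compounds to block cAMP breakdown; potency means the concentration at half of the fitted maximal effect; nearly all actives have a fitted effect of over 60% in size; about a fifth of the inactives were tested at one dose only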
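Cells in DMEM/10% FBS with G418 were pretreated with compounds in DMSO plus […] (300 uM stock) for 30 min at 37C. cAMP was measured by HTRF (cAMP-d2 plus anti-cAMP antibody-K) after 30 min at room temperature.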
gsp antag: antagonizes gsp, the McCune-Albright syndrome mutation. gsp-mutant cells, cAMP HTRF, 30 min; control for the full effect not named in the record. Potency, µM (top dose mostly 76.9 µM), for inactives: top-dose activity change, negative = inhibition, usual class: inhibitors. hit rate 0.4% among 340,000. AID 624288; active = falling curve of any shape with a large fitted effect; inconclusive = falling curve, mostly with a smaller effect; inactive = flat or rising curve; cell line not stated here;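 further: intracellular cAMP measured with PDE inhibitor Ro 20-1724 present during compound exposure; potency means the concentration at half of the fitted maximal effect; on the % scale 0 is the no-effect control and ±100 the full control effect; nearly all actives have a fitted effect of over 65% in size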
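HTRF cAMP measurement after 30 min RT detection following 30 min, 37C compound treatment alongside […] (added as 300 uM solution) in G418-selected cells seeded at 2000/well and grown 16–24 h.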
D2 potentiator: potentiates the human D2 dopamine receptor allosterically; DiscoveRx D2 beta-arrestin cells, luminescence, 90 min; 100% = 57 uM dopamine signal; potentiation, % (no concentration beside the values); P14416; hit rate 0.23% among 360,000; active = potentiation of 50% or more; inconclusive = 30% to 50%; inactive = 30% or less;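 further: compound concentration not given in the record; tested on top of an EC20 dose of dopamine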
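D2 cells co-treated with compound plus 50 nM dopamine (EC20) for 90 min at 37 deg C to detect potentiation. Beta-arrestin recruitment was read as enzyme-fragment luminescence after 1 h at ambient temperature. Full response was set by 57 uM dopamine.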
Six1-Eya2 inh: Six1/Eya2 interaction inhibition; Q15475+O00167; AlphaScreen GST-Six1/His-Eya2 binding, biochemical; hits give low values; control for the full effect not named in the record; activity change, % (test concentration not listed); hit rate 0.56% among 360,000; in the data active = activity change below about -65%; inconclusive = about -30% to -65%; inactive = above about -30%; further: on the % scale 0 is the no-effect control and ±100 the full control effect; compound concentration not given in the record
Target sequence (O00167 whole entry, looked up): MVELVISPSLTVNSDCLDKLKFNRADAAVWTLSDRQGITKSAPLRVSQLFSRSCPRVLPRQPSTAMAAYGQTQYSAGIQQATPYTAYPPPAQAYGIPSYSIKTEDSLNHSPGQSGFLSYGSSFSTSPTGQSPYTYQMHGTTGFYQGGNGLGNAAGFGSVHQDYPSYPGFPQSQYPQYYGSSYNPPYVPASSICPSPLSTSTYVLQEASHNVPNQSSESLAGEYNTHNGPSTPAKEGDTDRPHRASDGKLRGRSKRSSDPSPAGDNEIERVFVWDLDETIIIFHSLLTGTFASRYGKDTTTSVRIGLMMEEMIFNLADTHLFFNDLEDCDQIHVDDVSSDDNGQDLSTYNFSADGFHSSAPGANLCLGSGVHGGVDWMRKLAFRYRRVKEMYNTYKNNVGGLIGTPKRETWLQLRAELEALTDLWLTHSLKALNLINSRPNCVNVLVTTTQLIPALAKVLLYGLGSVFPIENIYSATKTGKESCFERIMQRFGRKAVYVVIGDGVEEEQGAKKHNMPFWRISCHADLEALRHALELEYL
Target sequence (Q15475 whole entry, looked up): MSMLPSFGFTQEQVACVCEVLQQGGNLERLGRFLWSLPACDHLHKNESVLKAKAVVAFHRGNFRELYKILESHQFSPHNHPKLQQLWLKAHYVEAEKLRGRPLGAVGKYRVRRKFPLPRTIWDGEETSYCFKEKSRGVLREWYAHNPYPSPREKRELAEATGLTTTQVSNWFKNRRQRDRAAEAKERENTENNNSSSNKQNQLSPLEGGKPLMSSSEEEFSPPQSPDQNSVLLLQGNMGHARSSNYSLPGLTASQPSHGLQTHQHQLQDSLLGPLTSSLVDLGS
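Homogeneous AlphaScreen proximity assay pairing GST-Six1 with His-tagged Eya2 (added as 5X mix: 250 nM and 500 nM) in 50 mM Tris pH 8.0, 300 mM NaCl, 1 mM TCEP. Glutathione donor and nickel acceptor beads; 1 h, 37 °C, dark.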
CtBP-E1A inh: blocks the CtBP interaction with E1A; AlphaScreen GST-E1A/His-CtBP binding, 1536-well; hits give low values; control for the full effect not named in the record; activity change, % (no concentration beside the values); hit rate 0.49% among 340,000; AID 651724; in the data active means activity change below about -65%; inconclusive means about -30% to -65%; inactive means above about -30%; further: on the % scale 0 is the no-effect control and ±100 the full control effect; compound concentration not given in the record
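Protein mix (5X: 125 nM each GST-E1A, His-CtBP) was incubated with pinned compound 2 h at 37 deg C in dark, in 50 mM Tris pH 8.0 buffer with 300 mM NaCl. Glutathione donor and nickel acceptor beads followed; AlphaScreen signal read after 1 h.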
D2 ag: agonists of human D2 dopamine receptor (beta-arrestin) | P14416 | DiscoveRx PathHunter D2 beta-arrestin, luminescence, 90 min; 100% = 57 uM dopamine signal | activation, % (test concentration not listed) | hit rate 0.084% among 360,000; in the data active = activation above about 40%; inconclusive = about 15% to 40%; inactive = below about 15%; further: compound concentration not given in the record; the text of the record calls up to 30% inactive
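DiscoveRx PathHunter D2 beta-arrestin cells (2,100/well) attached overnight, then compound-stimulated 90 min at 37 C in HBSS/10 mM HEPES/0.1% Tween-20 buffer; beta-galactosidase complementation read by luminescence after 1 h at ambient temperature. Dopamine 57 uM final (EC100) as control.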
The depositor's hits bear a star; u = inconclusive; x = no result given; [ ] = dose if it differs, or a comment.

SMILES	gsp agonist	gsp antag	D2 potentiator	Six1-Eya2 inh	CtBP-E1A inh	D2 ag
COc1ccc2c(Cl)c(C(=O)NC3CCS(=O)(=O)C3)sc2c1 (stereo not drawn)	-14%	-5%	23	5	3	-0.2
CSc1nnc(-c2ccccc2Cl)n1N	-22%	3%	-9	0	2	-2.7
Cc1ccc(N=CC2=C(O)CC(c3ccc(Cl)cc3)CC2=O)cc1 (stereo not drawn)	6%[15.4 µM]	0%	-28	-1	10	0.1
CCN(CC)CCN1C(=O)C(=O)/C(=C(/O)c2ccc(OC(C)C)cc2)C1c1cccs1 (stereo not drawn)	0%[15.4 µM]	-6%	-10	7	-2	-4.3
COc1ccc(/C=C2\SC(=S)N(CCCC(=O)N3CCOCC3)C2=O)cc1OC	-34%[inhibitor]	-3%	0	0	-5	3.3
Cc1ccc(S(=O)(=O)N2CCN(c3ccccc3)CC2)cc1C(=O)NC1CCCCC1	12%	u	-17	-2	-11	-4.5
CCc1nnc(SC(C)C(=O)Nc2nccs2)n1C (stereo not drawn)	u	-8%	-9	6	-2	-7.0
C#CCOCCOCCOCCNc1nc(N2CCN(C(=O)CCCCCCCCCCNC(=O)[C@H](CO)n3cc(CCCSC)nn3)CC2)nc(N2CCN(C(=O)CCCCCCCCCCNC(=O)[C@H](CCCN=C(N)N)n3cc(C[C@@H](C)CC)nn3)CC2)n1	x	6%	-14	-11	-19	3.5
O=C(NCc1ccc(Cl)cc1)c1noc2c1CCCC2	4%	0%	-16	10	10	-0.3
Cc1ccc(-n2c(=O)[nH]c3ncccc3c2=O)cc1	u	-2%	-5	-3	x	-4.5
CNS(=O)(=O)c1cccc(C(=O)OCc2csc(-c3ccccc3)n2)c1	-52%[inhibitor]	u	-5	-8	3	7.9
Cn1cc(/C=C/C(=O)N2CCCC(C(=O)c3ccc(C(C)(C)C)cc3)C2)cn1 (stereo not drawn)	u	-1%	0	2	6	-1.6
CCOC(=O)C(NCCc1ccc(F)cc1)(NC(=O)CC)C(F)(F)F (stereo not drawn)	-6%	-1%	9	1	0	-2.9
CCCNC(=O)C(Cc1ccc(Cl)cc1)NC(=O)c1ccc(-c2ccccc2)cc1 (stereo not drawn)	4%	12%	1	21	0	-0.1
O=C(Cn1ccc([N+](=O)[O-])n1)NCc1nc2ccccc2[nH]1	1%[15.4 µM]	16%	-5	10	-3	-3.2
Cc1ccc(S(=O)(=O)NCC2(c3ccccc3)CCOCC2)cc1	-94%[inhibitor]	8%	7	23	x	-6.7
Cc1ccc(S(=O)(=O)NCCCCCCNS(=O)(=O)c2ccc(C)cc2)cc1	-5%	x	-5	0	-7	-3.4
Cc1ccccc1C(=O)Nc1cccc(C(=O)N/N=C/c2cc(Cl)cc([N+](=O)[O-])c2O)c1	-21%	9%	-9	u	-73*	-5.6
Cn1ccc(=S)c2ccccc21	12%[15.4 µM]	14%	-16	-1	-6	-8.0
Cn1cccc1/C=N/n1c(-c2ccc(Cl)cc2)n[nH]c1=S	-16%	-16%	24	-6	-8	-1.5

For reference, six of the compounds above:
SMILES	gsp agonist	gsp antag	D2 potentiator	Six1-Eya2 inh	CtBP-E1A inh	D2 ag
COc1ccc2c(Cl)c(C(=O)NC3CCS(=O)(=O)C3)sc2c1 (stereo not drawn)	-14%	-5%	23	5	3	-0.2
CSc1nnc(-c2ccccc2Cl)n1N	-22%	3%	-9	0	2	-2.7
Cc1ccc(N=CC2=C(O)CC(c3ccc(Cl)cc3)CC2=O)cc1 (stereo not drawn)	6%[15.4 µM]	0%	-28	-1	10	0.1
CCN(CC)CCN1C(=O)C(=O)/C(=C(/O)c2ccc(OC(C)C)cc2)C1c1cccs1 (stereo not drawn)	0%[15.4 µM]	-6%	-10	7	-2	-4.3
COc1ccc(/C=C2\SC(=S)N(CCCC(=O)N3CCOCC3)C2=O)cc1OC	-34%[inhibitor]	-3%	0	0	-5	3.3
Cc1ccc(S(=O)(=O)N2CCN(c3ccccc3)CC2)cc1C(=O)NC1CCCCC1	12%	u	-17	-2	-11	-4.5

(cont.)
SMILES	gsp agonist	gsp antag	D2 potentiator	Six1-Eya2 inh	CtBP-E1A inh	D2 ag
CCOC(=O)C1=C(N)N(c2ccc(C)cc2)C2=C(C(=O)CCC2)C1c1cccs1 (stereo not drawn)	4%	-22%	-18	-13	-3	-0.4
COCCN1Cc2cccc(C(=O)Nc3ccc(C)c(C)c3)c2C1=O	10%	-34%	-23	-74*	-79*	-0.4
CC(C(=O)Nc1ccccc1-c1ccccc1)N1CCN(C(=O)c2ccccc2)CC1 (stereo not drawn)	-3%	u	3	-3	-16	-4.0
Cc1ccc(C(=O)N/C(=C\c2ccc3c(c2)OCO3)C(=O)Nc2ccc(C(=O)O)cc2)cc1	5%[15.4 µM]	-8%	-6	7	21	-3.3
CC(=O)OC(=C(OC(C)=O)c1ccccc1)c1ccccc1	-13%	5%	-2	-14	-16	-0.5
CCCNC(=O)N1CCC(C(=O)c2cccc(F)c2)CC1	-32%[inhibitor]	6%	-12	3	5	-4.6
Oc1cccc2c3c(oc12)CCCC3	-3%	6%	5	-1	x	-0.6
Cc1ccc(C)n1-c1sc2c(c1C(=O)O)CCCC2	-1%[15.4 µM]	-4%	-5	-17	-1	-1.7
OCC[C@@H]1C[C@H](O)[C@@H](O)[C@]2(CCc3ccccc3O2)O1	-13%	6%	-8	7	x	-4.0
Cc1ccc(-n2c(C)nnc2SCC(=O)N2CCc3ccccc3C2)cc1	-11%[15.4 µM]	-16%	-5	4	7	-9.2
CC(C)CC(=O)N(c1ccc(F)cc1)C1C=CS(=O)(=O)C1 (stereo not drawn)	u	-1%	-6	4	-1	0.3
CCN(CC)CCOC(=O)c1ccc(NC(=O)CNC(=O)C2CCCCC2)cc1	-28%	-2%	-3	3	8	0.3
COc1ccccc1CCNC(=O)C1CCC(=O)N(C2CC2)C1 (stereo not drawn)	u	5%	-3	10	x	0.4
CC1CCN(C(=O)c2cc(F)c(F)cc2Cl)CC1	-21%	-6%	2	0	6	-3.6
O=C(O/N=C1/CCSc2ccccc21)c1ccccc1	u	1%	-5	18	21	-4.2
Nc1oc2ccc(F)cc2c(=O)c1C=O	3%[15.4 µM]	-1%	-7	5	-5	-7.9
CCOC(=O)c1nnc(-c2ccccc2)nc1N1CCSCC1	1%[15.4 µM]	-9%	-11	-5	0	-1.8
CCc1nnc(NS(=O)(=O)c2ccc(NC(=O)c3cccc([N+](=O)[O-])c3)cc2)s1	7%	6%	-14	-3	-9	-0.2
COc1ccccc1N1CC(C(=O)Nc2ccc(C)c(S(=O)(=O)N3CCOCC3)c2)CC1=O (stereo not drawn)	-8%	4%	2	-4	1	2.9
Cc1ccc(C(C)NC(=O)c2cccs2)cc1 (stereo not drawn)	1%	5%	1	1	9	0.2
CC(=O)Nc1ccc(NC(=O)C(C)c2cccc(C(=O)c3ccccc3)c2)cc1 (stereo not drawn)	-2%[15.4 µM]	-3%	-2	1	3	-6.3
CC(=O)Nc1cccc(NC(=O)c2cccc(Cl)c2)c1	x	x	-4	-7	2	5.6
CC(=O)Nc1cccc(-c2ccnc3c2CC(C(=O)NCCC(F)(F)F)O3)c1 (stereo not drawn)	x	x	-7	0	1	-2.6
Cc1ccc(CCNC(=O)CSCc2ccc(F)cc2)cc1	6%[15.4 µM]	-4%	-2	16	13	2.5
Cn1cccc1/C=C1\SC(=Nc2ccccc2)NC1=O	25%	3%	-11	-5	x	-4.8
Cc1cc(C)n(-c2ccc(Cl)c(C(=O)Nc3ccc(OC(F)(F)F)cc3)n2)n1	-5%[15.4 µM]	6%	-5	-1	-19	-6.9
CC(=O)[C@]1(O)Cc2c(O)c3c(c(O)c2[C@@H](O[C@H]2C[C@H](N)[C@H](O)[C@H](C)O2)C1)C(=O)c1ccccc1C3=O	x	-12%	1	-22	-29	-9.4
CN(C)CCNC(=O)C(=O)Nc1cc2c3c(c1)CCN3C(=O)CC2	1%	-3%	-8	2	x	-2.1
CCOC(=O)c1cnc2ccc(C(=O)OC)cc2c1Nc1cccc(C(=O)O)c1	-4%[15.4 µM]	-6%	-8	10	-4	-2.9
Cc1ccc(S(=O)(=O)Nc2nc(-c3ccc(F)cc3)cs2)cc1	-5%[15.4 µM]	-1%	-6	-4	-5	-4.3
Cc1cccc(OCC(=O)NCCCNC(=O)c2cccnc2)c1	22%	6%	-4	-2	-2	-5.6
COCCN(Cc1ccccc1)C(=O)Cc1ccc(OC)c(S(=O)(=O)N2CCOCC2)c1	-6%[15.4 µM]	3%	-13	0	8	0.1
Cc1ccc(C(=O)O)cc1-c1ccc(/C=C2\SC(=O)N(CC(=O)Nc3ccc4c(c3)OCO4)C2=O)o1	13%[15.4 µM]	u	-7	u	-1	-1.9
COc1ccccc1N1CCN(C(=O)COc2cccc3ccccc23)CC1	-13%[15.4 µM]	7%	-17	-11	-4	1.0
Cc1cccc(CN2CCC(CNC(=O)C3CCCN(S(=O)(=O)c4cnc[nH]4)C3)CC2)c1 (stereo not drawn)	-15%	6%	-8	-5	-3	-4.7
Cc1cc(C)n(C(=O)c2cc3sccc3[nH]2)n1	u	2%	-16	7	2	1.4

Part of the list above, with values under each structure:
The line under a structure holds: gsp agonist	gsp antag	D2 potentiator	Six1-Eya2 inh	CtBP-E1A inh	D2 ag
COc1ccccc1N1CCN(C(=O)COc2cccc3ccccc23)CC1
 : -13%[15.4 µM]	7%	-17	-11	-4	1.0
Cc1cccc(CN2CCC(CNC(=O)C3CCCN(S(=O)(=O)c4cnc[nH]4)C3)CC2)c1 (stereo not drawn)
 : -15%	6%	-8	-5	-3	-4.7
Cc1cc(C)n(C(=O)c2cc3sccc3[nH]2)n1
 : u	2%	-16	7	2	1.4
